StopGo reporter – lowers the luciferase signal of an FMDV 2A StopGo reporter. human cells with a luciferase reporter of 2A StopGo recoding; control for the full effect not named in the record. 1.2% of 410,000 active. AID 1159524. Potency, µM (doses to about 57.9 µM), without a hit: at the highest dose signal change, negative = less light; active = well fitted falling curve with a large enough effect; inconclusive = small, poorly fitted or top-dose-only effect; inactive = no such curve, though single readings can be large or run the other way; tested in HEK293T cells; also: % is scaled to controls: 0 for no effect and ±100 for the full control effect; nearly all actives have a fitted effect of over 45% in size; luciferase light after 4 h
MARV entry inh – inhibitors of Marburg virus binding or cell entry. Marburg virus pseudotyped entry inhibition, cell reporter; control for the full effect not named in the record; about a third of the inactives were read at about 46 µM. Potency, µM (top dose mostly 37.8 µM), for the others: at the top dose activity change, negative = inhibition, hits mostly inhibitors. 1.8% of 300,000 active; active = well fitted inhibition curve with a large enough effect; inconclusive = small, poorly fitted or top-dose-only effect, or effect the other way; inactive = flat fitted curve, though single readings scatter; tested in HEK293 cells; about a fifth of its hits are not listed in these tables; also: % is scaled to controls: 0 for no effect and ±100 for the full control effect; luciferase read-out
RE007 growth inh – less growth of the S. pombe RE007 Vpr strain | Potency, µM (top dose mostly 92.2 µM), for inactives: at the highest dose activity change, negative = less growth | 0.21% of 360,000 active | AID 651644 | S. pombe RE007 Vpr strain, BacTiter-Glo ATP luminescence, 24 h; control for the full effect not named in the record; active = well fitted falling curve with a large enough effect; inconclusive = small, poorly fitted or top-dose-only effect; inactive = no such curve, though single readings can be large or run the other way;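 also: % is scaled to controls: 0 for no effect and ±100 for the full control effect; nearly all actives have a fitted effect of over 50% in size; the assay follows cell death caused by Vpr and the record does not say whether a fall means rescue or toxicity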
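Fission yeast RE007 carrying one integrated HIV-1 vpr copy, seeded at OD 0.01 in PMG+AL medium with 23 nL pinned compound. Grown 24 h at 30 degrees; viability read by BacTiter-Glo luminescence after 5 min.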
SARS PLpro yeast – SARS-CoV PLP inhibition in yeast; S. cerevisiae expressing SARS-CoV PLpro, growth rescue; control for the full effect not named in the record; Potency, µM (titrated, usually from 32.9 µM), for the others: at the top dose activity, positive = growth rescue; 0.19% of 330,000 active; AID 485353; active means well fitted rising curve with a large enough effect; inconclusive means small, poorly fitted or top-dose-only effect; inactive means no such curve, though single readings can be large or run the other way; also: 0% is about no effect; nearly all actives have a fitted effect of over 55% in size; growth read by luminescence after 48 h
Cruzain noTriton – blocks cruzain activity in detergent-free assay. P25779. purified cruzain, Z-FR-AMC fluorescence, no detergent. Potency, µM, without a hit: max response, negative = inhibition, hits mostly inhibitors. 2.3% of 200,000 active;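 also: plate controls were enzyme without inhibitor for no effect and buffer without enzyme for full effect; nearly all actives have a fitted effect of over 40% in size; top concentration of the series not given in the record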
Target sequence (P25779 123-467 limits assumed): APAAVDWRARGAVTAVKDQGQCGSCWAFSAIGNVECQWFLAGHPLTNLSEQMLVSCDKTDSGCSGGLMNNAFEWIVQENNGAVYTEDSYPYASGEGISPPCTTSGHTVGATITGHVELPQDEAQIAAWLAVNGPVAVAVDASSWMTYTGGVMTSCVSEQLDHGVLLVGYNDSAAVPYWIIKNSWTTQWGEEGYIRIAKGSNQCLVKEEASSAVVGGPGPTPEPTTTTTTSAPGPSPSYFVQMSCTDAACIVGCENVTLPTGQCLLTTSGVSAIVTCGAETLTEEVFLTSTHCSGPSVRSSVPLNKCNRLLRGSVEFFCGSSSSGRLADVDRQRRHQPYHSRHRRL
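Detergent-free condition (0.00005% Triton X-100) in acetate buffer pH 5.5 with DTT. 1.5 nM enzyme and compound were pre-mixed 15 min, then 2 uM Z-FR-AMC substrate added; reaction progress from fluorescence change between first and third reads (60 s).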
NS1 function inh – influenza NS1 inhibition; 0.4% of 270,000 active; S. cerevisiae slowed by influenza A NS1, growth recovery by OD600; Potency, µM (doses to about 46.1 µM), for inactives: at the highest dose activity, positive = more growth; active means well fitted rising curve with a large enough effect; inconclusive means small, poorly fitted or top-dose-only effect; inactive means no such curve, though single readings can be large or run the other way; also: nearly all actives have a fitted effect of over 50% in size
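Growth recovery, yeast-based: influenza A NS1 expressed in S. cerevisiae causes slow growth, and suppressors are detected by OD600. The parent strain without NS1 is used as positive control.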
Cruzain inh Det – inhibitors of Trypanosoma cruzi cruzain with detergent; P25779; purified cruzain, Z-FR-AMC fluorescence, 0.01% Triton; Potency, µM, for the others: max response, negative = inhibition, actives largely listed as inhibitors; 0.43% of 200,000 active;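 also: plate controls were neutral wells for no effect and buffer without enzyme for full effect; nearly all actives have a fitted effect of over 40% in size; top concentration of the series not given in the record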
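Cysteine protease activity tested under reducing, mildly acidic conditions (100 mM sodium acetate pH 5.5, 5 mM DTT) plus 0.01% Triton X-100. Cruzain 1.5 nM; substrate Z-FR-AMC 2 uM; 15 min compound preincubation at room temperature.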
Lassa entry inh – Lassa virus entry inhibition; Lassa virus pseudotype entry inhibition, cell reporter; control for the full effect not named in the record; Potency, µM (top dose mostly 37.9 µM), without a hit: at the highest dose activity change, negative = inhibition, most hits filed as inhibitors; 1.2% of 300,000 active; AID 540256; active means well fitted inhibition curve with a large enough effect; inconclusive means small, poorly fitted or top-dose-only effect, or effect the other way; inactive means flat fitted curve, though single readings scatter; tested in HEK293 cells; also: % is scaled to controls: 0 for no effect and ±100 for the full control effect; nearly all actives have a fitted effect of over 50% in size; luciferase read-out
An asterisk follows results filed as active; ? = inconclusive; . = not tested or not shown; [ ] = remark or other dose. Unless noted, calls follow the shape of the dose curve; as a rule, active = well fitted curve in the direction sought with a large enough effect; inconclusive = small, poorly fitted or top-dose-only effect, or another doubt; inactive = no such curve, though single readings can be large; an effect the other way counts as inactive or inconclusive. Potency is read from the fitted curve at half-maximal effect.

SMILES | StopGo reporter | MARV entry inh | RE007 growth inh | SARS PLpro yeast | Cruzain noTriton | NS1 function inh | Cruzain inh Det | Lassa entry inh
CC(=O)c1cc(C#N)c(SCC(=O)O)nc1C | -22.0% | ? | -1.7% | -0.4% | 2.1% | -4.8% | -6.2% | 0.2%
CCc1ccc(OCC(=O)O/N=C(\N)Cc2ccc([N+](=O)[O-])cc2)cc1 | 5.3% | -3.5% | -19.0% | -2.5% | 11.0% | -14.4% | -7.4% | -7.9%
CCc1nnc(NS(=O)(=O)c2ccc(NC(=S)NC(=O)c3ccc(F)cc3)cc2)s1 | 1.1% | -0.1% | -3.2% | ? | 12.5% | 13.7% | -12.8% | 13.1%
CCCCOc1ccc(-c2nnc(-c3ccncc3)o2)cc1 | -10.6% | ? | -28.7% | -2.3% | 5.3% | -38.5% | -2.3% | ?
CNC(=O)c1cnc2sc(N3CCCCCC3)nn2c1=O | 34.7%[activator] | . | . | . | -6.0% | . | 3.9% | ?
CS(=O)(=O)N(CC(=O)NCCSCc1cccc(Cl)c1)c1ccc2c(c1)OCO2 | -8.6% | ? | -9.2% | -9.5% | 20.2% | -16.3% | -4.6% | -4.7%
CCN1CCc2c(sc(NC(=O)COc3ccccc3)c2C(=O)OC)C1 | -16.5% | . | 2.9% | -1.9% | . | -6.5% | . | .
O=S(=O)(c1ccccc1Br)N1CCN(c2ncccn2)CC1 | -7.7% | 1.8%[46.1 µM] | 20.8% | 0.2% | . | -18.5% | . | .
CCC(Sc1nc2nccnc2c(=O)n1Cc1ccccc1Cl)C(=O)NC1CCCCC1 (stereo not given) | -7.6% | . | . | . | 11.0% | . | -1.7% | -0.2%[46.1 µM]
O=C(NCc1cccc(Cl)c1)c1ccc2c(c1)nc1n2CCOC1 | 19.4% | . | . | . | -2.8% | . | 0.6% | 7.7%[46.1 µM]
CCn1c(SCC(=O)N/N=C/c2ccc(C)o2)nnc1-c1ccccc1 | 0.0% | 15.4% | 2.1% | 1.3% | -20.0% | 15.2% | 8.2% | 16.0%
COc1ccc(S(=O)(=O)N(CC(=O)NCC2CCCO2)c2ccccc2)cc1OC (stereo not given) | -6.5% | 2.4% | 4.5% | 3.2% | 2.4% | 3.5% | 4.8% | -4.0%
Cc1cc2c(N=NC(=O)CCc3ccccc3)c(O)[nH]c2cc1Br | -11.6% | 1.6% | -0.6% | 11.3% | -27.9% | -1.5% | -2.8% | ?
CCOc1ccc(NC(=O)[C@@H](NC(=O)c2ccco2)C(C)C)cc1 | -9.6% | . | -15.0% | -0.5% | . | 2.5% | . | .
Cc1cc(C2C(C#N)=C(N)SC(N)=C2C#N)c(C)s1 | -9.4% | -7.2% | 0.3% | 1.4% | -7.4% | -1.6% | -10.0% | -10.2%
O=C(NCCCN=C1NS(=O)(=O)c2ccccc21)c1ccncc1 | 10.7% | -1.8% | 5.3% | -0.4% | 4.9% | 3.0% | 5.1% | 0.6%
CCC(=O)c1c[nH]c(C(=O)NCc2ccccc2OC)c1 | 0.0% | ? | 0.6% | -0.7% | . | 1.6% | . | -16.6%[46.1 µM]
O=C1C2CCCCC2C(=O)N1c1cccc(OS(=O)(=O)c2ccccc2)c1 (stereo not given) | -9.8% | 17.8% | ? | -10.8% | 4.8% | 0.1% | -2.7% | -5.5%
Cn1c(SCC(=O)NC(=O)NCc2ccco2)nnc1C(F)(F)F | -8.3% | 0.4% | -25.7% | -4.4% | -0.9% | -0.7% | -3.9% | 24.6%
CCNc1nc(SCC(=O)OC)nc(N2CCOCC2)n1 | -12.3% | 6.4% | 3.7% | -0.7% | -10.5% | -7.6% | 0.6% | 2.7%
O=C(c1cc(-c2ccccn2)nc2c(Cl)cccc12)N1CCN(S(=O)(=O)c2ccccc2)CC1 | 0.0% | -44.6% | 35.7% | -13.7% | -22.9% | ? | -8.8% | -18.8%
Cc1ccc2cc(CN(c3cccc(C)c3C)S(=O)(=O)c3ccccc3)c(=O)[nH]c2c1 | -20.5% | . | -7.3% | -15.7% | . | 16.4% | . | .
CC(Oc1ccccc1F)c1ccnc2nc(/N=C/N(C)C)nn12 (stereo not given) | 3.8% | -4.7%[46.1 µM] | -9.1% | -0.2% | . | 5.8% | . | -5.3%
O=C(C1CCCN1S(=O)(=O)c1ccc(Cl)c(Cl)c1)N1CCCCC1 (stereo not given) | 13.8% | -1.2% | -3.8% | -1.4% | 1.1% | -0.7% | -5.8% | 15.7%
CC(C)=C(NC(=O)c1ccccc1)C(=O)NCCc1nc2ccccc2[nH]1 | 0.1% | -5.2%[46.1 µM] | 1.9% | -0.2% | . | -15.7% | . | -1.3%[46.1 µM]
O=C(Nc1nnc(SCc2cc(=O)c3ccccc3[nH]2)s1)c1ccccc1 | ? | . | . | . | -0.9% | . | 1.3% | 18.6%[46.1 µM]
O=C(Nc1ccc(C(F)(F)F)cc1)C1(c2ccccc2)CC1 | 9.1% | -5.9% | -12.6% | -25.2% | 1.7% | -1.5% | -4.1% | 13.3%
COc1ccc(Cl)cc1-n1nnc(-c2nc(-c3ccc4c(c3)OCO4)no2)c1C | 0.9% | . | . | . | -3.5% | . | 4.2% | ?
Cn1c(N)c(C(=O)c2cc(-c3ccccc3)nc3ccccc23)c(=O)n(C)c1=O | 20.3% | -12.1%[46.1 µM] | -0.1% | 4.5% | -6.2% | 4.9% | 1.2% | 14.5%
CC(C)Oc1ccc(Cc2c(O)[nH]c(=O)[nH]c2=O)cc1 | . | 24.2% | -12.2% | -6.1% | -11.7% | 1.9% | 0.8% | 9.5%
COc1cc(OC)cc(C(=O)N[C@H](C(=O)OCC(=O)NC(=O)NC(C)(C)C)C(C)C)c1 | -18.6% | -19.8% | -3.8% | 2.2% | . | -5.6% | . | ?
CCOC(=O)c1nn(-c2ccc(C)cc2)c2nc(Nc3ccccc3)cc(=O)n12 | -20.5% | -17.8% | -12.1% | -1.5% | 23.0% | -0.6% | -4.5% | 3.9%
COC(=O)CCC(=O)Nc1ccccc1C(N)=O | -0.5% | 3.5% | 3.7% | -5.0% | 1.6% | -5.3% | 0.6% | ?
Cc1oc2c(CN3CCCC(C)C3)c(O)ccc2c(=O)c1-c1ccccc1 (stereo not given) | 18.3% | . | 21.8% | -1.0% | . | -0.9% | . | .
COC(=O)c1ccccc1NC(=O)COc1ccc2c(c1)OCO2 | -8.5% | 2.1% | 2.0% | -0.8% | . | -6.0% | . | -22.5%
O=c1n(-c2ccccc2)c(=O)n2n1CC(O)C2 | 8.9% | ? | -0.9% | -5.3% | . | . | . | 2.2%
N/C(=N\OC(=O)C12CC3CC(CC(C3)C1)C2)c1cccnc1 | . | -3.7% | 8.5% | -2.0% | 7.0% | -2.3% | -2.5% | 3.3%
Cc1cccc(CN2CCN(C(=O)c3ccccc3F)CC2)c1 | -21.9% | -1.3% | 6.0% | 0.6% | -0.1% | -0.7% | 4.3% | 0.1%
OCC1(CCc2ccccc2)CCN(Cc2cc(Cl)ccc2O)CC1 | -17.1% | 3.0%[14.2 µM] | 2.0% | 0.3% | . | 0.6% | . | -0.1%
Cc1c(NC(NC(=O)CF)C(Cl)(Cl)Cl)c(=O)n(-c2ccccc2)n1C (stereo not given) | -3.5% | -1.8%[14.2 µM] | 3.5% | -6.4% | . | . | . | -9.0%
CN(C)Cc1c(OC(=O)c2ccc(N)cc2)ccc2ccccc12 | 13.8% | -2.6%[46.1 µM] | ? | . | . | . | . | 13.6%[46.1 µM]
O=C(C1CC(=O)N(c2ccc3c(c2)OCCO3)C1)N1CCN(c2cccc(C(F)(F)F)c2)CC1 (stereo not given) | ? | -31.2% | 3.2% | -0.3% | . | . | . | -6.6%[46.1 µM]
CCN1C(=O)/C(=C\N2CCN(c3ccc(F)cc3)CC2)SC1=S | -22.6% | -28.4% | -2.9% | 1.6% | -0.5% | 10.0% | -2.9% | 13.2%
CC(C)C(=O)NNC(=O)CC(=O)Nc1ccccc1C(=O)O | -23.8% | . | 15.2% | 0.9% | . | -7.0% | . | .
CC1CCN(CCCNC(=O)c2ccc(CSCc3cccc(Cl)c3)o2)CC1 | -26.9% | 11.6µM* | 8.9% | 9.7% | -14.7% | -15.8% | -2.4% | -17.8%
CNC(=O)c1c(NC(=O)CCS(=O)(=O)c2ccc(C)cc2)sc(C)c1C | 35.5%[activator] | 23.8%[46.1 µM] | 2.3% | 5.3% | . | . | . | 12.0%
Cc1cc(NC(=O)c2cccn(Cc3ccccc3)c2=O)no1 | -9.9% | . | . | . | -2.9% | . | 0.3% | -5.6%[46.1 µM]
COc1ccc(OC)c(NC(=O)C2CC(/C=C/c3ccccc3)=NO2)c1 (stereo not given) | 4.3% | ? | -16.0% | -1.1% | . | -5.8% | . | -5.7%

Reprinted at random: 3 compounds from above
SMILES | StopGo reporter | MARV entry inh | RE007 growth inh | SARS PLpro yeast | Cruzain noTriton | NS1 function inh | Cruzain inh Det | Lassa entry inh
CC(C)Oc1ccc(Cc2c(O)[nH]c(=O)[nH]c2=O)cc1 | . | 24.2% | -12.2% | -6.1% | -11.7% | 1.9% | 0.8% | 9.5%
Cc1c(NC(NC(=O)CF)C(Cl)(Cl)Cl)c(=O)n(-c2ccccc2)n1C (stereo not given) | -3.5% | -1.8%[14.2 µM] | 3.5% | -6.4% | . | . | . | -9.0%
Cc1oc2c(CN3CCCC(C)C3)c(O)ccc2c(=O)c1-c1ccccc1 (stereo not given) | 18.3% | . | 21.8% | -1.0% | . | -0.9% | . | .

(cont.)
SMILES | StopGo reporter | MARV entry inh | RE007 growth inh | SARS PLpro yeast | Cruzain noTriton | NS1 function inh | Cruzain inh Det | Lassa entry inh
O/N=C(\c1ccc(Cl)cc1)c1ncc(C(F)(F)F)cc1Cl | -22.5% | -3.7% | -12.0% | -10.5% | 1.4% | -81.2% | -6.2% | -4.8%
O=C(NCC(c1ccco1)N1CCc2ccccc2C1)c1ccc([N+](=O)[O-])cc1 (stereo not given) | -3.8% | -12.6% | 7.5% | -1.0% | . | . | . | -0.5%
O=C(NCc1cccnc1)c1ccc(-c2cccc(Cl)c2Cl)o1 | -5.0% | -8.1%[46.1 µM] | -3.3% | -2.2% | . | -7.1% | . | ?
CSc1nnc(-c2ccccc2)o1 | 61.3%[activator] | 0.7% | -12.5% | -2.5% | 1.4% | -2.1% | 3.8% | 3.5%
